TRPML1 ag – qHTS for Agonists of the Human Mucolipin Transient Receptor Potential 1 (TRPML1); Mucolipin-1 (Homo sapiens), Q9GZU1; TRPML1-expressing cells, Ca2+ dye fluorescence, FDSS; host cell line not named in the record; reference of the full effect not given here; activation, % (test concentration not listed); actives 0.12% (n = 410,000); AID 624414, 2012; in the data active = activation above about 50%; inconclusive = about 30% to 50%; inactive = below about 30%; further: 0% is about no effect; the text of the record puts the active cut at 80%
Target sequence (Q9GZU1 whole entry, looked up): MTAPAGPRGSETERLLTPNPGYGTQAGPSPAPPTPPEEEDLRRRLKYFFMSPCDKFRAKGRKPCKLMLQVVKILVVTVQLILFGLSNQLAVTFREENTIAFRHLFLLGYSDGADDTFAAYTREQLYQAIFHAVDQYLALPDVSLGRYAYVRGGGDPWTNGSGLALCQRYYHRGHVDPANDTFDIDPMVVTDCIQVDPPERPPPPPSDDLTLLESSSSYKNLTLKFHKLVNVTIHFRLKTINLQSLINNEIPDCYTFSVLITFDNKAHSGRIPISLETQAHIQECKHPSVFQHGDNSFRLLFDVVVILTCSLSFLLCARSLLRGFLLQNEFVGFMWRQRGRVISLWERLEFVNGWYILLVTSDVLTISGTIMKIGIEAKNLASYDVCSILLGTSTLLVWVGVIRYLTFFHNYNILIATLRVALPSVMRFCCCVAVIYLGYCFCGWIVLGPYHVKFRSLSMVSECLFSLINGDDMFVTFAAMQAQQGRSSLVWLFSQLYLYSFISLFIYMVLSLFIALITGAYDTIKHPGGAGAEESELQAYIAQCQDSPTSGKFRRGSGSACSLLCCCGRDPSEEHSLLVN
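Kinetic FDSS Ca2+ read in Tet-induced TRPML1-DL cells (ABD Ca8 dye plus quencher, 45-90 min RT loading): baseline, then compound, then 110 s agonist window; EC80 agonist 54-4 at 4uM final added afterwards for a 110 s antagonist window.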
PINK1 expr mod – A Quantitative High throughput Screen to Identify Chemical Modulators of PINK1 Expression; PINK1 immunofluorescence, high-content cytometry, 24 h; Potency, µM (highest dose often 76.6 µM), without a hit: at the highest dose activation (PINK1 increase), most hits filed as activators; actives 0.2% (n = 410,000); AID 624263, 2012; active = well fitted activation curve with a large enough effect; inconclusive = small, poorly fitted or top-dose-only effect; inactive = flat fitted curve, though single readings scatter; cell line not stated here;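 further: potency means the concentration at half of the fitted maximal effect; % of control where 0% means no effect; nearly all actives have a fitted effect of over 65% in size; a mitochondrial uncoupler was the plate control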
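A stable cell line was treated with compounds at 5 concentrations for 24 hours, with CCCP as control. PINK1 levels and mitochondrial localization were measured by immunofluorescence with mitochondrial, cell and nuclear markers after fixation, read by laser-scanning cytometry.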
TRPML1 inh – qHTS for Inhibitors of the Human Mucolipin Transient Receptor Potential 1 (TRPML1); actives 0.02% (n = 390,000); Mucolipin-1 (Homo sapiens), Q9GZU1; TRPML1-inducible cells, Ca2+ dye fluorescence, FDSS; active compounds read low; inhibition of EC80 agonist-evoked calcium signal; activity change, negative = inhibition, % (no concentration beside the values); in the data active means activity change below about -50%; inconclusive means about -30% to -50%; inactive means above about -30%;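 further: stimulus is agonist 54-4 at its EC80 concentration; on the % scale 0 is the no-effect control and ±100 the full control effect; compound concentration not given in the record; the text of the record puts the active cut at -80%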
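Tet-induced TRPML1-DL cells loaded with Ca8 no-wash calcium dye were read kinetically on FDSS. Compound addition was followed by EC80 agonist 54-4 (4 uM final); inhibition was read over 110 s.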
D2 ag – Beta-Arrestin HTS for Positive Allosteric Modulators of the Human D2 Dopamine Receptor: Agonists; D(2) dopamine receptor (Homo sapiens), P14416; DiscoveRx PathHunter D2 beta-arrestin, luminescence, 90 min; 100% = 57 uM dopamine signal; activation, % (test concentration not listed); actives 0.084% (n = 360,000); AID 624465, 2012; in the data active = activation above about 40%; inconclusive = about 15% to 40%; inactive = below about 15%; further: compound concentration not given in the record; the text of the record calls up to 30% inactive
Target sequence (P14416 whole entry, looked up): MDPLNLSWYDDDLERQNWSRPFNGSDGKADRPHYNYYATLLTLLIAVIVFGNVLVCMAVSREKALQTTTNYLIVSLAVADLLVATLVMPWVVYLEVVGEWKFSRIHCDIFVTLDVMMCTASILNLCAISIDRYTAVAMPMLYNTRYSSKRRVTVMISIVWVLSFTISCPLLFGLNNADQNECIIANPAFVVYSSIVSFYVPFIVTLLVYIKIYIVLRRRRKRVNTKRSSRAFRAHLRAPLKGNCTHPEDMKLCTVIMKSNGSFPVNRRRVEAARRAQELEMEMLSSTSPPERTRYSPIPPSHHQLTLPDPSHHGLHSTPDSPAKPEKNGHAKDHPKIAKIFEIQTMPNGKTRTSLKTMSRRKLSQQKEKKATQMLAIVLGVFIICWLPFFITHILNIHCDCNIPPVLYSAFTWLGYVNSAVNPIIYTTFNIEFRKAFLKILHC
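Agonist mode: compounds alone added to overnight-plated D2 PathHunter cells for 90 min at 37 C, with 57 uM final dopamine (EC100) defining full response. Beta-arrestin recruitment detected by chemiluminescent reagent, read after 1 h at ambient temperature.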
Six1-Eya2 inh – qHTS Assay for Inhibitors of the Six1/Eya2 Interaction; AlphaScreen GST-Six1/His-Eya2 binding, biochemical; active compounds read low; control for the full effect not named in the record; activity change, % (no concentration beside the values); actives 0.56% (n = 360,000); AID 651725, 2012; in the data active = activity change below about -65%; inconclusive = about -30% to -65%; inactive = above about -30%; further: on the % scale 0 is the no-effect control and ±100 the full control effect
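Homogeneous AlphaScreen proximity assay pairing GST-Six1 with His-tagged Eya2 (added as 5X mix: 250 nM and 500 nM) in 50 mM Tris pH 8.0, 300 mM NaCl, 1 mM TCEP. Glutathione donor and nickel acceptor beads; 1 h, 37 °C, dark.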
D2 potentiator – Beta-Arrestin HTS for Positive Allosteric Modulators of the Human D2 Dopamine Receptor: Potentiators; D(2) dopamine receptor (Homo sapiens), P14416; DiscoveRx D2 beta-arrestin cells, luminescence, 90 min; 100% = 57 uM dopamine signal; potentiation, % (no concentration beside the values); actives 0.23% (n = 360,000); AID 624464, 2012; active = potentiation of 50% or more; inconclusive = 30% to 50%; inactive = 30% or less;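 further: compound concentration not given in the record; tested on top of an EC20 dose of dopamine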
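PathHunter D2 cells, attached overnight at 37 deg C, received compound in DMSO plus dopamine at EC20 (50 nM final) for 90 min at 37 deg C. Beta-arrestin recruitment was read as luminescence after 1 h with detection reagent at ambient temperature.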
* marks the source's active call; other numbers are inactive results; ? = inconclusive; · = no result given; [ ] = dose if it differs, or a comment.

SMILES	TRPML1 ag	PINK1 expr mod	TRPML1 inh	D2 ag	Six1-Eya2 inh	D2 potentiator
Cn1c(/C=C(\C#N)C(N)=S)ccc1-c1ccc(Br)cc1	0.2	2.6%	5.4	-9.7	?	-26.4
CCN(Cc1ccccc1)C(=O)COC(=O)c1n[nH]c2ccccc12	0.3	-1.2%	3.1	-0.3	-3.4	28.9
CCOC(=O)c1sc(C)c2c1NC(c1ccc(Cl)cc1)NC2=O (stereo unspecified)	2.5	10.2%	27.8	-1.1	0.9	13.0
CC(NC(=O)Cc1ccccc1F)c1ccc(F)cc1 (stereo unspecified)	-0.7	0.8%	-0.8	3.2	0.2	-5.1
CCN(CC)c1ccc2cc(NC(=O)CCC(=O)O)c(=O)oc2c1	?	-1.3%[38.3 µM]	2.3	3.0	4.0	11.4
CC(C)(C)N1C(=O)c2ccc(C(=O)Nc3ccc(C(=O)O)cc3)cc2C1=O	0.3	1.4%	18.5	-1.9	3.0	-2.2
CCC(CC)=NNc1ccc([N+](=O)[O-])cc1[N+](=O)[O-]	0.0	-0.2%	13.0	11.7	-11.3	3.4
COC(=O)Nc1ccc(S(=O)(=O)NCCCCCC(=O)O)cc1	-0.6	0.4%	2.5	-2.7	-6.0	-3.9
CCOC(=O)CSC1=NC(=O)/C(=C/c2ccc(OC)cc2)S1	0.2	2.7%	-3.5	-5.7	-2.1	-16.2
O=C(NCc1ccc2c(c1)OCO2)C1CCC(CNS(=O)(=O)c2cccc3nsnc23)CC1 (stereo unspecified)	-1.0	12.3%	0.1	-5.5	-2.8	0.6
Cc1nc(C)c(-c2ccc(SCC(=O)Nc3cccc(F)c3)nn2)s1	-0.9	4.3%	3.7	1.3	-1.6	-0.5
CC(=O)Nc1ccc(S(=O)(=O)N2CCN(C(C)CCc3ccccc3)CC2)cc1 (stereo unspecified)	-0.6	-1.4%	-9.8	1.0	-9.7	-0.9
CCOc1ccc2nc(SCC(=O)c3ccc(O)cc3O)sc2c1	1.2	5.1%	-8.4	-0.7	-8.0	-7.0
Cc1ccc(C=NNc2nc3c([nH]2)c(=O)n(C)c(=O)n3C)cc1	0.6	2.9%	38.1	8.2	-7.2	10.2
CCOC(=O)[C@]12CCC=C1N(Cc1ccco1)C(=O)[C@H](CC(=O)NCc1cccc(C(F)(F)F)c1)C2	0.2	1.2%	·	·	1.2	·
O=C(Cn1cnc2ccccc2c1=O)N1CCN(c2ccc(F)cc2)CC1	-0.3	1.1%	-4.4	-1.4	4.1	-0.2
COCCNC(=O)C1(C)Oc2ccccc2NC1=O (stereo unspecified)	6.0	-2.8%	-2.6	-1.8	-2.7	0.7
Nc1n[nH]c(N)c1N=Nc1cccc(F)c1	-0.5	-1.9%	-14.4	-2.4	-17.8	3.5
C=CCn1c(NS(=O)(=O)c2ccccc2)c(S(=O)(=O)c2ccc(C)cc2)c2nc3ccccc3nc21	-0.3	?	?	-5.0	15.3	-23.7
CCC(=O)NCCc1nc2cc(NC(=O)c3ccccc3Cl)ccc2n1C	0.4	1.0%	18.8	4.4	2.4	4.5
O=C(CCn1cnnn1)NC1CCCN(Cc2ccccc2F)C1 (stereo unspecified)	0.3	2.0%	8.3	3.5	11.8	-9.5
COc1ccc2[nH]cc(C(=O)CNc3nc(C)cs3)c2c1	-1.3	-1.3%	-2.5	-0.5	-15.7	-7.8
Cc1cccc(C2c3[nH]c4ccccc4c3CCN2Cc2cnn(-c3ccc(F)cc3)c2)n1 (stereo unspecified)	1.9	9.3%	17.9	1.8	-5.0	-14.0
COc1ccc(-c2c(Sc3ccccc3)c3cc(-c4ccc5c(c4)OCO5)ccc3n2C)cc1	3.6	2.2%	·	·	-7.3	·
CN1C(C(=O)NCc2cccc(Br)c2)CC2Cn3c(nc4cc5ccccc5cc43)C21 (stereo unspecified)	-0.9	-0.9%	-5.9	-0.6	-6.6	-3.0
CCCCN=C1NN=C(c2cc3ccccc3o2)CS1	-0.9	-0.9%	4.4	-18.3	-11.8	-32.8
CN1CCC[C@@H]1CCNC(=O)c1c(-c2ccc3c(c2)OCO3)noc1-c1ccsc1	-0.2	-0.9%	-10.2	-2.6	3.4	-27.1
Cc1ccc2nc(-c3ccc(NC(=O)COCC(=O)O)cc3)sc2c1	0.9	-1.0%	1.4	2.2	-19.4	0.6
CCCC(=O)Nc1nnc(SCC(=O)N2CCCCC2)s1	-0.3	1.9%	9.1	-1.3	-3.2	-14.2
O=c1cc(/C=C/c2ccccc2)oc2c1ccc1ccccc12	3.1	16.1%	-14.0	-7.0	-3.9	-1.3

Random excerpt: three records from the list.
SMILES	TRPML1 ag	PINK1 expr mod	TRPML1 inh	D2 ag	Six1-Eya2 inh	D2 potentiator
CC(=O)Nc1ccc(S(=O)(=O)N2CCN(C(C)CCc3ccccc3)CC2)cc1 (stereo unspecified)	-0.6	-1.4%	-9.8	1.0	-9.7	-0.9
O=C(Cn1cnc2ccccc2c1=O)N1CCN(c2ccc(F)cc2)CC1	-0.3	1.1%	-4.4	-1.4	4.1	-0.2
COCCNC(=O)C1(C)Oc2ccccc2NC1=O (stereo unspecified)	6.0	-2.8%	-2.6	-1.8	-2.7	0.7

(listing goes on)
SMILES	TRPML1 ag	PINK1 expr mod	TRPML1 inh	D2 ag	Six1-Eya2 inh	D2 potentiator
CN(C)c1ccc(CNC(=O)CCNS(=O)(=O)c2cc(Br)cnc2N)cc1	0.4	-1.9%	-0.8	1.0	-2.8	-5.4
O=C(Cc1cccs1)Nc1ccc(S(=O)(=O)Nc2ncccn2)cc1	0.0	1.0%	-1.3	-2.9	-17.4	0.3
O=C(NC1CCCCCCC1)c1ccc(F)cc1	1.7	2.0%	20.2	-1.9	1.7	-7.3
O=C(c1cnc(Cl)c(Cl)c1)N1CCC(Cc2ccccc2)CC1	0.6	0.0%	-10.1	-3.9	15.0	-10.6
COc1cccc2cc(C(=O)NCc3ccc(Cl)cc3)c(=O)oc12	1.9	4.0%	4.6	4.5	-15.4	2.2
Cn1ncc2c(Nc3ccc(Cl)c(Cl)c3)ncnc21	0.6	1.7%	-25.9	9.1	0.0	5.4
CC/C(C)=N/Nc1nc(-c2cc3cccc(OC)c3oc2=O)cs1	0.2	1.9%	-2.2	-1.3	-21.9	0.7
CCSc1cc(N2CCOCC2)nc(-c2ccccc2)n1	-0.5	0.0%	-0.2	-2.1	3.9	-13.1
COc1ccccc1NS(=O)(=O)c1cc(NC(=S)NCC2CCCO2)ccc1C (stereo unspecified)	1.2	1.0%	0.6	4.1	10.8	-0.6
N/C(=N\OC(=O)Oc1ccccc1)c1cccc([N+](=O)[O-])c1	0.2	2.9%	-3.3	0.1	2.8	3.8
CN(C)C(=O)CCc1ccc2c3c([nH]c2c1)[C@]1(C)[C@@H](C(=O)N2CCOCC2)C[C@H](CC(=O)NCCN2CCOCC2)C(=O)N1CC3	-0.5	0.4%	-6.8	-3.1	1.8	·
Cc1c(C(=O)N2CCCCC2)c(S(=O)(=O)NCCc2ccc(Cl)cc2)c(C)n1C	0.5	0.5%	-13.5	0.0	-8.1	-9.3
Cn1c(=O)c2sccc2n2c(CCC(=O)N3CCN(c4ccccc4)CC3)nnc12	1.1	0.4%	6.8	·	·	·
Cc1noc(C)c1C(=O)Nc1ccccc1-c1ccccc1	-0.8	4.7%[38.3 µM]	-2.5	2.0	2.7	0.1
COC(=O)c1cc2sc(Cl)cc2n1Cc1nc(-c2ccccc2F)oc1C	0.5	1.1%	42.6	·	·	·
N#CCCn1cnc2c(=S)nc[nH]c21	0.0	·	5.8	1.4	1.0	7.7
Cc1cccc(-n2nc3c(c2NC(=O)c2cc4ccccc4o2)CS(=O)(=O)C3)c1	0.7	1.2%	6.4	7.1	-1.8	6.8
O=C(N/N=C/c1ccc(F)cc1)c1ccc(OCc2ccccc2)cc1	0.1	-0.3%	?	-9.2	24.9	-1.2
Nc1[nH]c(C(=O)c2ccccc2)c(-c2ccc(Br)cc2)c1C(=O)NC1CCCCC1	-0.5	12.1%	·	·	-3.5	·
CC(C)(C)NC(=O)COc1ccc(CNCCc2ccccc2)cc1	0.0	0.2%	-9.8	-1.8	5.3	-11.8
Cc1cc(N(CCO)CCO)ccc1N=Nc1cc(F)ccc1F	-1.0	4.0%	10.4	-7.8	?	-23.6
CC(C)(C)c1ccc(NC(=O)N2CCCN(c3c(Cl)cncc3Cl)CC2)cc1	0.6	2.8%	-23.4	-3.9	2.4	-8.4
O=C(N=C1SC2CS(=O)(=O)CC2N1CCc1ccc(F)cc1)C1CCCCC1 (stereo unspecified)	4.0	3.8%	4.5	-0.5	2.8	-1.5
C=CCn1c(C)cc(C(=O)COC(=O)[C@@H](NC(=O)c2ccccc2Cl)C(C)C)c1C	1.7	-2.4%	-1.6	-1.3	-4.4	-19.6
COc1ccc(CCN(C)C(=O)c2cnc(C)cn2)cc1OC	-0.2	2.8%	0.5	-0.3	-0.7	-0.2
CCN(CC)C(=O)c1sc2c(c1C)c(=O)n(-c1ccccc1)c(=O)n2CC(=O)Nc1ccc(C)cc1C	1.0	1.7%	-13.6	·	·	·
CC(=O)c1ccc(Oc2ccc(C(C)=O)cc2)cc1	0.7	-2.1%	17.3	-2.7	6.1	-1.9
CCCCOc1ccc(C(=O)NCC(c2ccc(Cl)cc2)N2CCOCC2)cc1 (stereo unspecified)	0.1	-1.0%	31.4	·	·	·
CC(C)NC(=O)N(C)C[C@@H]1OCc2cn(nn2)CCCC(=O)N([C@H](C)CO)C[C@H]1C	-0.3	0.4%	-5.2	-4.0	0.3	4.2
CCCN(C(=O)COC(=O)CCOc1ccc(C)cc1)c1c(N)n(Cc2ccccc2)c(=O)[nH]c1=O	-0.2	6.9%	-2.3	1.0	3.9	8.1
CCOC(=O)c1sc(NC(=O)c2cc3n(n2)C(C(F)(F)F)CC(c2cccs2)N3)c(C(=O)OCC)c1C (stereo unspecified)	0.8	0.9%	-14.1	-2.9	?	-17.4
Cc1ccc(NC(=O)CC(C)S(=O)(=O)c2ccc3c(c2)NC(=O)CO3)cc1Cl (stereo unspecified)	4.9	2.9%	-8.2	·	·	·
Cc1ccc(Sc2ccc(NC(=O)CCN3C(=O)NC4(CCCC4)C3=O)cc2)c(C)c1	0.4	?	-12.0	-0.3	-1.6	-0.7
CC(C)C[C@H](NC(=O)[C@H](Cc1ccccc1)n1c(=O)[nH]c2ccccc2c1=O)C(=O)N1CCC[C@H]1C(=O)O	·	0.9%	·	-6.4	7.0	-23.9
Cc1ccsc1C(=O)N1CCN(S(=O)(=O)c2cccs2)CC1	-0.2	-2.5%	5.7	3.6	4.5	-3.1
CC(O)(c1cccnc1)c1nc(-c2cccc(C#N)c2)cs1 (stereo unspecified)	-1.0	1.0%	·	5.1	-1.0	0.7

The order is random; 1% or so of the library scored in one or more.
